NPYLR7 agonist = mosquito NPYLR7 agonism; actives 0.15% (n = 270,000); AID 1259423; HEK293T NPYLR7/Galpha15, GCaMP6s calcium fluorescence; activation, % at 10 µM; in the data active means activation above about 40%;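 further: 0% = vehicle and 100% = reference agonist at the receptor; some compounds past the cut are filed as inactive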
NPYLR7 agonist max-min = recorded beside NPYLR7 agonist, whose call it bears; activation, %; measured here: Max-Min RFU normalised activation; some inactives read as strong as hits;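 span of the calcium signal over five minutes; 0% = vehicle and 100% = native peptide agonist; compound fluorescence can raise it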
Numbers without * were called inactive; & = joins results of further samples.

smiles,NPYLR7 agonist,NPYLR7 agonist max-min
CSc1cccc(NC(=O)N2CCCCC2CCN2CCCC2=O)c1 (centres undefined),9,8
COC(=O)c1ccc(CN(Cc2cccc(OC)c2OC)C2CC2)o1,-5,3
O=C1C2=C(Nc3ccccc3SC2c2ccco2)c2ccccc21 (centres undefined),-1,-4
CC1=C(C(N)=O)C(c2ccc(C(F)(F)F)cc2)n2ncnc2N1 (centres undefined),2,-1
CSc1nnc(SCC(=O)NCC2(c3ccccc3)CCOCC2)s1,-1,-3
N#CCCn1ccc2ccccc21,1,8
CCN(C)c1ccc(C(=O)Nc2cccc(Oc3cccnn3)c2)cc1,1,-2
O=C(NCC1(O)CCS(=O)(=O)CC1)C1C2CC3CC(C2)CC1C3 (centres undefined),5,7
Cc1ccc(SCC(=O)NC23CC4CC(CC(C4)C2)C3)cc1C,11,8
CCCCCOc1ccc(C(=O)Nc2ccccc2Nc2ccccc2)cc1OCCCCC,3,3
CC1CC(OCC(O)CN2CCC(CN3C(=O)c4cccc5cccc(c45)C3=O)CC2)CC(C)(C)C1 (centres undefined),1,8
N#CC(NC(=O)CC(c1ccccc1)C(F)(F)F)c1ccsc1 (centres undefined),5,5
CCC(C)C(N)c1ccc(Cl)cc1 (centres undefined),14,8
O=C(c1occc1-c1ccccc1)N1CCN(S(=O)(=O)c2c(F)cccc2F)CC1,1,1
Cc1csc(SCc2cc(=O)c(OC(=O)c3cccc(Cl)c3)co2)n1,-2,-6
O=C(O)C1CN(C(=O)c2ccccc2Oc2ccccc2)CCN1 (centres undefined),5,2
C=CCn1cnc2c(nnn2-c2ccc(OC(F)(F)F)cc2)c1=O,-3,-11
O=C(CCN1CCCN2CCCC2C1)NC1CCCc2ccccc21 (centres undefined),6,3
CC(C)C(=O)Nc1cc(-n2nnnc2C2CC2)ccc1F,2,-2
CC1CCN(C(=O)c2ccccc2-c2ccc(S(C)(=O)=O)cc2)CC(C)(C)C1 (centres undefined),-8,-14

Taken from the listing for reference:
smiles,NPYLR7 agonist,NPYLR7 agonist max-min
CC1=C(C(N)=O)C(c2ccc(C(F)(F)F)cc2)n2ncnc2N1 (centres undefined),2,-1
CSc1nnc(SCC(=O)NCC2(c3ccccc3)CCOCC2)s1,-1,-3
N#CCCn1ccc2ccccc21,1,8
CCN(C)c1ccc(C(=O)Nc2cccc(Oc3cccnn3)c2)cc1,1,-2
O=C(NCC1(O)CCS(=O)(=O)CC1)C1C2CC3CC(C2)CC1C3 (centres undefined),5,7
Cc1ccc(SCC(=O)NC23CC4CC(CC(C4)C2)C3)cc1C,11,8
CCCCCOc1ccc(C(=O)Nc2ccccc2Nc2ccccc2)cc1OCCCCC,3,3
CC1CC(OCC(O)CN2CCC(CN3C(=O)c4cccc5cccc(c45)C3=O)CC2)CC(C)(C)C1 (centres undefined),1,8
N#CC(NC(=O)CC(c1ccccc1)C(F)(F)F)c1ccsc1 (centres undefined),5,5
CCC(C)C(N)c1ccc(Cl)cc1 (centres undefined),14,8
O=C(c1occc1-c1ccccc1)N1CCN(S(=O)(=O)c2c(F)cccc2F)CC1,1,1
Cc1csc(SCc2cc(=O)c(OC(=O)c3cccc(Cl)c3)co2)n1,-2,-6
O=C(O)C1CN(C(=O)c2ccccc2Oc2ccccc2)CCN1 (centres undefined),5,2
C=CCn1cnc2c(nnn2-c2ccc(OC(F)(F)F)cc2)c1=O,-3,-11
O=C(CCN1CCCN2CCCC2C1)NC1CCCc2ccccc21 (centres undefined),6,3
CC(C)C(=O)Nc1cc(-n2nnnc2C2CC2)ccc1F,2,-2
CC1CCN(C(=O)c2ccccc2-c2ccc(S(C)(=O)=O)cc2)CC(C)(C)C1 (centres undefined),-8,-14

Further records
smiles,NPYLR7 agonist,NPYLR7 agonist max-min
COc1ccc(CC2CN(Cc3ccc4nonc4c3)CCO2)cc1 (centres undefined),9,12
CCOC(=O)c1ccsc1NC(=O)c1nc2ccccc2s1,1,-1
CCc1cc(N2CCN(C(C)=O)CC2)nc(SCc2ccc(C(=O)NCc3ccc4c(c3)OCO4)o2)n1,-8,-7
NS(=O)(=O)CCSCc1c(Cl)cccc1Cl,-1,18
Cc1ncc(CN2CCCC(CCc3ccc(F)c(F)c3)C2)[nH]1 (centres undefined),1,-1
Cc1cccc(OCCCCn2c(CO)nc3ccccc32)c1C,18,18
Nc1nc(N2CCCC2)[nH]c(=O)c1C(=S)Nc1ccccc1,-2,-4
O=C(Nc1ccccc1)N1C2CCC(O)(CC2)C1CN1CCOCC1 (centres undefined),12,22
Cc1ccc(C(=O)Nc2sc3c(c2C(=O)N2CCC(C)CC2)CCCC3)cc1,7,9
O=C(Nc1ncccn1)C1CCN(C(=O)C2(c3ccccc3)CCC2)CC1,4,2
N#Cc1ccc(N(CCO)S(=O)(=O)c2cccc(Br)c2)cc1,-1,112
COc1ccccc1C1c2[nH]c3ccccc3c2CCN1Cc1nc2ccccc2n1C (centres undefined),15,9
Cc1c(C)n2c3c(=O)n(Cc4ccccc4)c(=O)n(C)c3nc2n1CCOCCO,2,9
CCCCCCCCCCCC(=O)N1CCc2nc(Cc3cccc(C(F)(F)F)c3)[nH]c(=O)c2C1,-3,-3
CCC1CCc2sc(C(=O)N3CCC(C(=O)Nc4ccc5c(c4)OCO5)CC3)cc2C1 (centres undefined),0,19
CCNC(=O)Cn1c(CO)cnc1SCc1ccc(C)cc1,7,7
Cc1cccc(-n2c(SCc3ccc(C(=O)NCc4ccco4)cc3)nnc2-c2cccs2)c1,13,19
CCCCC(=O)N(CCCOC)CC(=O)N(CCc1c[nH]c2ccccc12)Cc1ccc(Cl)c(Cl)c1,1,13
Cc1ccc(NC(=Nc2nc(C)cc(C)n2)NC(=O)c2ccc([N+](=O)[O-])cc2)cc1,-5,-4
NC(=O)[C@H]1C[C@@H](O)[C@H](O)[C@@H]2NC(=NCCN3CCOCC3)S[C@@H]21,-8,-17
CCN(CC)C(=O)Oc1ccc2c(ccn2Cc2cc(C)cc(C)c2)c1-c1ccc(OC)c(OC)c1,5,2
COC(=O)n1c(=O)oc2cc(S(=O)(=O)N3CCOCC3)ccc21,-1,-4
O=C(c1ccc2c(c1)OCCO2)N(Cc1ccccn1)c1nc2c(F)cc(F)cc2s1,3,-5
CCN(CC)C(=O)Oc1ccc2c(ccn2Cc2ccccc2F)c1NC(=O)C(C)Cl (centres undefined),1,4
CCN(CC)C(CNC(=O)Nc1ccc(N2CCOCC2)cc1)c1ccsc1 (centres undefined),21,18
CCCc1nc2ccc(NC(=O)CC(C)(C)C)cn2n1,9,-3
Cc1ccc(CC(=O)N(CC2CCC2)CC(F)(F)F)cn1,4,2
O=C(NCc1ccc(OC(F)F)cc1)c1ccc(Cl)cc1,-2,-7
O=C(NCCc1cnccn1)C1CCC(=O)N(CCc2ccccc2)C1 (centres undefined),6,3
COc1ccccc1CN(CCc1c[nH]c2ccccc12)C(=O)CN(C(=O)c1cc(C(F)(F)F)cc(C(F)(F)F)c1)C(C)C,12,23
O=c1[nH]c2sc3c(O)c4ccccc4c(=O)c-3c(-c3ccccc3O)c2s1,4,2
CCOC(=O)[C@@H]1C[C@@H]1c1[nH]cnc1-c1ccccc1,-3,-6
Nc1nc(SCC(=O)Nc2ccc(Cl)cc2)[nH]c(=O)c1NC(=O)c1ccc(F)c(F)c1,3,2
O=C(NC1CCN(c2ccccc2C(=O)N2CCCC2)CC1)c1ccccc1Cl,-1,4
Cc1nnsc1CN(C)C(=O)CCC(=O)NC1CCCC1,-4,-6
CCCc1ncc(C(=O)c2ccc(OC)cc2)n1C,19,4
O=C(COc1ccccc1)Nc1nc(-c2cc(F)ccc2F)cs1,-4,0
O=S(=O)(c1ccccc1Br)N1CCNCC1,-1&4,-4&2
O=S(=O)(c1ccccc1Br)N1CCN(Cc2ccccc2F)CC1,25,13
NC1=NC2=C(CCCC2)C2(CCCCC2)S1,24,18
COCCN1C(=O)N(C2Cc3ccccc3C2)C(=O)C12CCN(Cc1ccc3c(c1)CCO3)CC2,13,-1
CC1=NNc2nc3c(c(=O)n(Cc4ccccc4C)c(=O)n3C)n2C1C (centres undefined),-7,-11
CSc1ccccc1OCc1cc(C(=O)N(C)Cc2ccncn2)no1,0,0
CCCc1nnc(NC(=O)C2C3CC4CC(C3)CC2C4)s1 (centres undefined),-6,-7
O=C1CCN2[C@H]3c4ccccc4OC[C@@H]3CN12,23,31
Brc1cn[nH]c1-c1ccccn1,5,3
CN(c1ccccc1)S(=O)(=O)c1cccc(NS(=O)(=O)c2cccc(Cl)c2Cl)c1,5,3
O=C(O)CN(CCN(CC(=O)O)CC(=O)O)CC(=O)O,7&-2&-7,-3&-6&-12
O=C(CCN1CCc2sccc2C1)NC1CCCCC1,-20,-21
COc1cc(OC)cc(C2c3cccn3CCCN2Cc2ccc(F)cc2)c1 (centres undefined),11,8
CC(=O)Nc1ccc(-c2nnc3ccc(-c4cnn(C)c4)cn23)cc1,6,-8
CNC(=O)C(C)N(C)C1CCN(Cc2cccnc2)CC1 (centres undefined),20,2
CCN(Cc1ccco1)C(=O)/C=C/c1cn(C)c(=O)n(C)c1=O,7,5
COc1cc(-c2nccn2CCc2cnc[nH]2)cc2c1OCO2,-3,-4
CC(C)CNC(=O)c1ccc2c(=O)n(C(C)C)c3nn(Cc4ccc(F)cc4Cl)c(=O)n3c2c1,1,-7
CC(C)c1nccn1C(C)c1ccc(-n2cncn2)cc1 (centres undefined),5&1,0&-2
CN(C)CCNC(=O)c1nn(-c2ccc(C(F)(F)F)cc2)c(=O)n(Cc2ccc(F)cc2)c1=O,12,18
CCOc1ccc(NC(=O)N2CCC(N(C)C(C)=O)CC2)cc1C,7,3
COc1ccc(/C=C\C(=O)Nc2c3c(nn2-c2cccc(Cl)c2)CSC3)cc1OC,1,0
CCCCOc1ccc(-c2nc3cc(Cl)ccc3c(=O)o2)cc1,-6,-9

Further structures follow.
smiles,NPYLR7 agonist,NPYLR7 agonist max-min
COc1cc(OC)cc(C2SCCN2C(=O)c2ccc(OC)cc2OC)c1 (centres undefined),11,13
CC1(C)CC2CC(C)(CN2C(=O)c2cc3ccsc3n2Cc2ccccc2F)C1 (centres undefined),6,7
O=c1cccnn1CCCNS(=O)(=O)c1ccc2ccccc2c1,-8,-10
CCCCc1nc2cc(C(=O)N3CCCN(C(C)=O)CC3)ccc2o1,0,-7
CN(C(=O)CSc1nnc(-c2ccc(Cl)cc2)n1CC1CCCO1)C1CCCCC1 (centres undefined),0,4
O=C1Nc2cc(Cl)ccc2/C1=C/c1cccs1,4,1
Cc1nc2c(=O)n(Cc3ccccc3C)nc(-c3cccs3)c2s1,5,1
CC(C)CN(CC(=O)N1CCc2sccc2C1c1ccccc1)C(=O)CCc1ccccc1 (centres undefined),21,30
CC(C)CC(NC(=O)c1ccc(F)cc1Br)c1ccccc1 (centres undefined),2,-4
Cn1nc(-c2ccc(Cl)cc2)cc1NC(=O)c1c(O)c2ccccc2[nH]c1=O,2,-1
CC(=O)N1CCc2cc(NC(=O)C3(C)CCN3Cc3ccc(OC(C)C)cc3)ccc21 (centres undefined),5,3
Cc1ccc(C(O)COc2ccc(CO)cc2)cc1C (centres undefined),2,0
CC(Oc1ccc2ccccc2c1)C(=O)NNC(=O)c1ccccn1 (centres undefined),-3,-4
Oc1ccc(Cl)cc1C1SCCCS1,0,2
CCOC(=O)c1nn(-c2ccccc2Cl)c(=O)cc1OCC(=O)Nc1cccc(NC(C)=O)c1,9,4
Cc1ccccc1Cn1cccc1CN(C(=O)c1ccc([N+](=O)[O-])cc1Cl)C1CCCCC1,22,18
CC(=O)N1CCC(NCc2ccc3[nH]c(-c4ccc(F)cc4)c(C)c3c2)CC1,8,8
OCC1(O)CCCN(c2cc(C(F)(F)F)nc(N3CCCC3)n2)CC1 (centres undefined),8,22
O=C(CCCCC1CCSS1)NC(c1ccc(F)cc1)c1ccc(SCc2ccccc2)cc1 (centres undefined),-9,-18
Cc1nsc(N2CC(C)OC(C)C2)n1 (centres undefined),37,23
O=C(CN(CCCN1CCOCC1)C(=O)NCc1ccccc1)N(Cc1ccc2c(c1)OCO2)Cc1ccco1,0,3
CN(C)C1CCN(c2ccc(NC(=O)c3cccs3)cc2F)CC1,8,6
O=C(c1csc(CSc2nnc(-c3ccccc3Cl)n2-c2ccccc2Cl)n1)N1CCN(Cc2ccc3c(c2)OCO3)CC1,20,24
CC(C)c1nnsc1CN1CCc2[nH]nc(-c3ccc(F)c(F)c3)c2C1,-4,-7
CCN1C(C)=C(C)S/C1=C1\SC(=S)N(Cc2ccccc2)C1=O,11,9
NC(=O)c1noc([C@H](CCCC2CCCCC2)CC(=O)NO)n1,-1,-5
CN(CCNC(=O)Cc1ccccn1)S(C)(=O)=O,-3,-2
COC(=O)c1ccc(COC(CN2CCN(C(=O)C3C[C@H]3c3ccccc3)CC2)c2ccc(Cl)cc2)cc1 (some centres undefined),6,6
COc1cc2c(=O)[nH]c(-c3ccccn3)nc2cc1OC(F)F,1,-2
CN1CCN(Cc2ncc(Cl)n2C)c2cc(Cl)ccc21,-5,-4
Cc1cn2c3c(=O)n(CCN4CCOCC4)c(=O)n(C)c3nc2n1-c1ccc(Br)cc1,-3,-6
Cc1ccc2c(c1Br)/C(=N\N1C(=O)c3ccccc3C1=O)C(=O)N2,0,-7

Profiles, looked up by structure. Screens in order: NPYLR7 agonist	NPYLR7 agonist max-min
Results for `CC(C)CN(CC(=O)N1CCc2sccc2C1c1ccccc1)C(=O)CCc1ccccc1` (centres undefined) : 21	30
Results for `O=S(=O)(c1ccccc1Br)N1CCNCC1` : -1&4	-4&2

Only part of the results is shown; rates above refer to the full screens.
